# Vaccinia Venus – qHTS for Stage-Specific Inhibitors of Vaccinia Orthopoxvirus: Venus Reporter Primary qHTS; Potency, µM (titrated, usually from 36.5 µM), inactives show at the top dose activity change, negative = inhibition, actives largely listed as inhibitors; Vaccinia virus Venus reporter expression, fluorescence; 0.46% of 330,000 active; AID 720580, 2013; active means well fitted inhibition curve with a large enough effect; inconclusive means small, poorly fitted or top-dose-only effect; inactive means no such curve, though single readings can be large or run the other way; tested in A549 cells; also: nearly all actives have a fitted effect of over 30% in size; inactives centre near -10
# VACV mCherry inh – qHTS for Stage-Specific Inhibitors of Vaccinia Orthopoxvirus: mCherry Reporter Primary qHTS; Vaccinia virus mCherry reporter infection, fluorescence; about a quarter of the inactives have no number; Potency, µM (doses to about 36.5 µM), for inactives: at the highest dose activity change, negative = inhibition, actives largely listed as inhibitors; 0.63% of 310,000 active; active = well fitted inhibition curve with a large enough effect; inconclusive = small, poorly fitted or top-dose-only effect; inactive = no such curve, though single readings can be large or run the other way; tested in A549 cells; also: nearly all actives have a fitted effect of over 35% in size; inactives centre near -10
# * marks the source's active call; other numbers are inactive results; i = inactive; ? = inconclusive; . = no result given; & = joins results of further samples; [ ] = another dose, or the depositor's remark. % is scaled to controls: 0 for no effect and ±100 for the full control effect; potency is read from the fitted curve at half-maximal effect.
compound | Vaccinia Venus | VACV mCherry inh
CC12CN(C(=O)c3ccccc3)C3(C#N)CC1CCC23C (centres undefined) | 2% | .
C[C@@]12C(=O)N(CCc3c[nH]c4ccccc34)CC(=O)N1[C@H]1c3ccccc3OC[C@@H]1[C@@H]2c1ccccc1 | -26% | -21%
O=C(N/N=C/c1ccc(Br)s1)c1ccccn1 | -17% | i
Cc1csc2ncc(C(=O)NCCc3ccccc3)c(=O)n12 | -15% | -15%
C[C@H]1COc2cc(N(C)CCO)ccc2S(=O)(=O)N1 | 2% | i
O=c1[nH]c(=O)c2[nH]c(=S)[nH]c2[nH]1 | 5% | -14%
Cc1coc2c(C)c3oc(=O)c(CC(=O)NCc4ccccc4)c(C)c3cc12 | -19% | -19%
COc1ccccc1NS(=O)(=O)c1ccc(C)c(C(=O)N2CCN(c3ccc(O)cc3)CC2)c1 | -19% | -17%
CCc1nc(SCC(=O)NCc2ccco2)c2c(=O)n(C)c(=O)n(C)c2n1 | -7% | -9%
Cc1ccc(C)c(NC(=O)CN2C(=O)CSc3nc(C)cc(C)c32)c1 | -6% | -19%
CS(=O)(=O)Nc1cccc(-c2nccc(-n3ccnc3)n2)c1 | 11% | 6%
CCN(CC(=O)Nc1c(F)cccc1F)C(=O)C1CCN(c2ncnc3sc(C)c(C)c23)CC1 | -19% | ?
CCOC(=O)c1nn(-c2ccccc2)c(=O)cc1SC1CCCCC1 | 1% | -3%
COC(=O)c1ccc(CN2CCC(CO)(Cc3ccc(OC)cc3)CC2)cc1 | -8% | ?
O=C(Nc1c(C(=O)N2CCC(N3CCCCC3)CC2)oc2ccccc12)c1c(F)cccc1F | -11% | -14%
Cc1ccc(CN(C)C(=O)CCc2c[nH]c3ccccc23)o1 | -18% | -17%
Cc1ccc(C(=O)Nc2ccccc2N2CCCCC2)cc1[N+](=O)[O-] | -7% | i
COc1ccc(OC)c(S(=O)(=O)NCc2cn3c(C)csc3n2)c1 | -8% | i
O=C(OC1CCCCC1)c1ccc(NC(=O)C2CCCCC2)cc1 | ? | .
N#C/C(=C/c1cccn1-c1cccc(C(=O)O)c1)c1ccc(F)cc1 | -13% | i
O=C(Nc1nc2ccsc2c(=O)s1)c1ccc(F)cc1Cl | -14%[7.34 µM] | -10%[7.34 µM]
Cc1ccc2[nH]c3c(NCCN4CCOCC4)ncnc3c2c1 | -26% | -26%
COC(=O)c1ccccc1NC(=O)N1CCc2ccc(NC(=O)c3ccccn3)cc2C1 | -17% | -19%
CN1CCCC(n2nc(Cc3ccc(Cl)cc3)c3ccccc3c2=O)CC1 (centres undefined) | -28%&-20% | ?
CCn1c2ccccc2c(=O)c2ccccc21 | -9% | -5%
N#CC1(Nc2ccc(S(N)(=O)=O)cc2)CCCC1 | -19% | -12%
FC(F)(F)c1ccc2c(c1)N(CCCN1CCN(CCCl)CC1)c1ccccc1S2 | ? | .
CC(C)[C@H](NC(=O)c1ccco1)C(=O)OCC(=O)NC12CC3CC(CC(C3)C1)C2 | -6% | i
COc1ccc2c(c1)c1c(c(=O)n(-c3ccccc3C)c(=O)n1Cc1ccccc1C)n2C | 3% | -8%
O=S1(=O)CC(N2CCN(CCO)CC2)CN1Cc1ccccc1 (centres undefined) | 1% | i
Cc1ccccc1CC1C(=O)Nc2ccc(Br)cc21 (centres undefined) | -10% | 4%
O=C(CN1c2cccc3cccc(c23)S1(=O)=O)Nc1cccc(S(=O)(=O)N2CCOCC2)c1 | -23% | -10%
CN(CC(=O)NCc1ccco1)CC(=O)Nc1cc(S(C)(=O)=O)ccc1Cl | -13% | i
COc1ccnc(N=CNOCc2ccc(F)cc2Cl)c1C#N | -22% | .
O=C(CCC(=O)N1CCOCC1)NCCc1ccc(F)cc1 | -16% | i
Cc1cc(C)cc(OCC(=O)Nc2ccccc2C(=O)N2CCOCC2)c1 | -4% | -7%
O=S(=O)(NCC(c1ccco1)N1CCOCC1)c1cc(F)ccc1F (centres undefined) | -2% | -10%
CN1CCN(/N=C/c2nc(-c3cccc([N+](=O)[O-])c3)n3ccccc23)CC1 | -21% | -3%
Cc1ccc(C(=O)CSc2nnc(-c3ccco3)n2CC2CCCO2)cc1 (centres undefined) | -3% | -17%
Nc1c(C(=O)NCc2ccccc2)nnn1Cc1cccc(Br)c1 | -20%[7.34 µM] | -30%[7.34 µM]
O=C1NCCN(Cc2ccc(-c3ccccc3)cc2)C1CC(=O)N1CCN(CCO)CC1 (centres undefined) | -6% | -2%
CC1CCCN(c2ccc(C(=O)Nc3ccc4c(c3)OCO4)cc2[N+](=O)[O-])C1 (centres undefined) | ? | -12%
CC(NC(=O)OC(C)(C)C)C(=O)NC(CCC(=O)OCc1ccccc1)C(N)=O (centres undefined) | -11% | -7%
CC(=O)Nc1ccc(S(=O)(=O)NCCC(=O)NNC(=O)c2ccccc2O)cc1 | 2% | -12%
COc1ccc(NC(=O)Cn2nc(C(=O)O)c3ccccc3c2=O)cc1Cl | -10% | 1%
O=C(COC(=O)C1CCCCC1)Nc1ccc(S(=O)(=O)N2CCOCC2)cc1 | -3% | -11%
COc1cccc(-c2noc(C3CCCN(C(=O)Cc4ccccc4)C3)n2)c1 (centres undefined) | -8% | i
CN1CCN(C(=O)/C(=C/c2ccc([N+](=O)[O-])cc2)NC(=O)c2ccccc2)CC1 | 0% | 14%
Cc1ccccc1CC(=O)N(CCN(C)C)CC1CCCN(Cc2ccccc2F)C1 (centres undefined) | -11% | -1%
O=C(CN1C(=O)C(=O)N(Cc2ccccc2)C1=O)Nc1cc(Cl)cc(Cl)c1 | ? | ?

# Grouped by structure: the compounds so far with an aryl thioether with sulfur outside any ring (3)
compound | Vaccinia Venus | VACV mCherry inh
CCc1nc(SCC(=O)NCc2ccco2)c2c(=O)n(C)c(=O)n(C)c2n1 | -7% | -9%
CCOC(=O)c1nn(-c2ccccc2)c(=O)cc1SC1CCCCC1 | 1% | -3%
Cc1ccc(C(=O)CSc2nnc(-c3ccco3)n2CC2CCCO2)cc1 (centres undefined) | -3% | -17%

# Reprinted at random: 6 entries already listed.
compound | Vaccinia Venus | VACV mCherry inh
CC(NC(=O)OC(C)(C)C)C(=O)NC(CCC(=O)OCc1ccccc1)C(N)=O (centres undefined) | -11% | -7%
COc1cccc(-c2noc(C3CCCN(C(=O)Cc4ccccc4)C3)n2)c1 (centres undefined) | -8% | i
COc1ccc(NC(=O)Cn2nc(C(=O)O)c3ccccc3c2=O)cc1Cl | -10% | 1%
CC1CCCN(c2ccc(C(=O)Nc3ccc4c(c3)OCO4)cc2[N+](=O)[O-])C1 (centres undefined) | ? | -12%
Cc1ccccc1CC(=O)N(CCN(C)C)CC1CCCN(Cc2ccccc2F)C1 (centres undefined) | -11% | -1%
CC(=O)Nc1ccc(S(=O)(=O)NCCC(=O)NNC(=O)c2ccccc2O)cc1 | 2% | -12%

# Additional structures follow.
compound | Vaccinia Venus | VACV mCherry inh
Cn1cccc1/C=N/NC(=O)c1ccncc1 | -5% | -23%
CCOC(=O)C1=C(c2ccccc2)NC(=S)NC1c1ccc(C)c([N+](=O)[O-])c1 (centres undefined) | -30% | ?
Cc1cc(=O)[nH]c(SCc2cccc3cccnc23)n1 | -6% | -17%
CN1CCN(C2CCN(S(=O)(=O)c3ccc(C(C)(C)C)cc3)CC2)CC1 | -17% | -4%
C=C(C)CN1C(=O)C(=O)N(CC(=C)C)C1=O | -11% | i
CCCN1CCN(CC(=O)NCC(=O)Nc2cccc(C)c2C)CC1 | 5% | i
CC(=O)n1cc(N(C(=O)CCl)c2ccc(C)cc2)c2ccccc21 | -19% | -10%
Cc1ccc(C(=O)C(C)OC(=O)c2ccc(Cl)nc2)cc1 (centres undefined) | -7% | i
O=C(NC(Cc1ccc(O)cc1)C(=O)N=Nc1c(O)[nH]c2ccccc12)c1ccccc1 (centres undefined) | -5% | -5%
CC(C)CN1CCN(Cc2ccccc2C(F)(F)F)CC1CCO (centres undefined) | 5% | -11%
CC(C)=C1C2CCC1C1C(=O)N(c3nc(-c4ccc(C(C)C)cc4)c(C)s3)C(=O)C21 (centres undefined) | -5% | -9%
CCC(C)(C)C1CCc2[nH]nc(C(=O)NCc3ccc(OC)cc3)c2C1 (centres undefined) | ? | i
CCOc1ccc(-n2c(=O)c3c(C)c(C)sc3n(CC(=O)Nc3ccc(CC)cc3)c2=O)cc1 | -22% | -21%
Cc1cccc(C(=O)Nc2cccc(OCc3cc(=O)n4c(C)csc4n3)c2)c1 | -6% | -10%
O=c1c2c(-c3ccc([N+](=O)[O-])cc3)csc2nc2n1CCCCC2 | 1% | -7%
Cn1c(CSCc2ccc(F)cc2)nnc1SCC(=O)N1CCN(c2ccccc2)CC1 | ? | .
O=C(COC(=O)c1ccccc1SCC(=O)N1CCCC1)NCc1ccccc1 | -2% | -9%
COc1ccc(S(=O)(=O)N2Cc3ccccc3-n3nncc3C2)cc1 | -16% | i
Cn1c2ccccc2c(=O)c2c(=O)n(Cc3ccco3)c(-c3ccc(F)cc3)nc21 | -4%[7.34 µM] | 1%[7.34 µM]
CSCCC(N=C1NS(=O)(=O)c2ccccc21)C(=O)NCCc1ccccc1 (centres undefined) | -6% | -18%
CC(NC(=O)CN1CCN(c2ccccc2F)CC1)c1ccccc1 (centres undefined) | -5% | i
Cc1ccccc1C1=NC(C(F)(F)F)(C(F)(F)F)c2c(n(C)c(=O)n(C)c2=O)N1 | -22% | i
COc1ccc(-c2csc(NC(=O)COc3ccc(N(C)S(=O)(=O)c4ccc(C)cc4)cc3)n2)cc1 | ? | -10%
Cc1csc(N=Cc2ccc([N+](=O)[O-])o2)n1 | -11% | ?
C(C#CCCCCCCCCC[n+]1ccccc1)#CCCCCCCCCC[n+]1ccccc1 | 10µM* | 10µM*
Cc1nc2ncnn2c(C)c1CCC(=O)NCCC1=CCCCC1 | -10% | -16%
O=C(c1ccc2nc(-c3ccco3)c(-c3ccco3)nc2c1)N1CCN(c2ncccn2)CC1 | -13% | -24%
NC(c1csc(NC(=O)Nc2ccccc2Cl)n1)C1CCCCC1 (centres undefined) | -14% | -15%
Cc1cc(-c2ccc(C)c(S(=O)(=O)NCC3CCN(Cc4ccc(F)cc4)CC3)c2)on1 | ? | ?
COc1ccc(OC)c(NCc2cccn2-c2nnc(N3CCC(C)CC3)s2)c1 | -26% | -12%
COC(=O)c1ccc(Oc2nc3c(c(=O)n(C)c(=O)n3C)n2C(C)C)cc1 | -9% | -8%
Cc1c(NC(=O)/C(C#N)=C/c2ccc(-c3ccc(Cl)c(Cl)c3)o2)c(=O)n(-c2ccccc2)n1C | -23% | ?
CC(NCC(=O)Nc1ccccc1C(=O)NC1CC1)c1ccco1 (centres undefined) | 8% | 0%
CC1CCC(NC(=O)c2ccc(CS(=O)(=O)c3cccc(C(F)(F)F)c3)o2)CC1 (centres undefined) | -3% | -15%
CCCn1nc(C(=O)NNC(=O)c2ccc(C)c(C)c2)c2ccccc2c1=O | -10% | -12%
CN1CCCC(OC(=O)c2cccc(S(=O)(=O)N3CCCCCC3)c2)C1 (centres undefined) | -12% | -12%
CCCNC(=O)C1CCN(Cc2cc3ccccc3n2Cc2ccccc2)CC1 | -12% | -14%
C=CCn1c(SCc2c(C)noc2C)nc2sc(C)c(C)c2c1=O | ? | i
COc1ccccc1Cc1nc2ccccc2nc1SCC(=O)Nc1ccccc1C(F)(F)F | -17% | -3%
COc1ccc(C2(C(=O)NCC3CCCO3)CCOCC2)cc1 (centres undefined) | -17% | i
O=C(N/N=C/c1ccc([N+](=O)[O-])cc1)c1ccc2nc[nH]c2c1 | -12% | i
Cc1nonc1N1CCN(Cc2cn[nH]c2-c2ccc(F)cc2F)CC1 | -10% | -7%
COc1ccc(O)c(CN2CCC3(CCC(CNC(=O)c4ccccc4)O3)CC2)c1 (centres undefined) | -17% | -17%
CC(=O)c1cccc(NC(=O)C(C)OC(=O)CCN=C2NS(=O)(=O)c3ccccc32)c1 (centres undefined) | -8% | -4%
COc1ccc(NC2=C(C(C)=O)C(c3ccc(OC)cc3)C(C(C)=O)C(C)(O)C2)cc1 (centres undefined) | 1% | 2%
COc1cc(CNc2ccc(CNc3ncn[nH]3)cc2)ccc1OCC(=O)NC(C)(C)C | -18% | -8%
CCCCCCC(=O)NCC(=O)OCC(=O)c1ccccc1 | -10% | -9%
CC(=O)N1c2c(cc(Br)cc2S(=O)(=O)NCC2COc3ccccc3O2)CC1C (centres undefined) | -9% | -19%
O=C(NC(NNc1ccc([N+](=O)[O-])cc1)(C(F)(F)F)C(F)(F)F)c1ccc(Cl)cc1 | -21% | -15%
Nc1[nH]c(N=NC(=O)c2ccc(F)cc2)c2ccccc12 | -14% | i

# (further entries)
compound | Vaccinia Venus | VACV mCherry inh
COc1cc(C2Nc3ccccc3-c3cc(C)nn32)ccc1O (centres undefined) | 3% | -8%
CCCCOCCCNC(=O)C[C@@H]1C[C@@]2(C(=O)OCC)CCCC=C2N(CCC2=CCCCC2)C1=O | ? | -27%
CC(C)=CC(=O)Nc1ccc(Br)cc1 | -14% | i
O=C(CSc1cccc[n+]1[O-])Nc1cc(S(=O)(=O)N2CCOCC2)ccc1N1CCOCC1 | -2% | -4%
CN(C)CC(C)(C)CNCc1cc(=O)oc2ccc3ccccc3c12 | -7% | ?
O=C(Nc1ccccc1)Nc1ccccc1C(=O)NCc1ccco1 | -19% | -19%
CC1(C)N=C(SCc2ccc(Cl)cc2)c2ccccc2N1 | 0% | -3%
